High-throughput results as filed in PubChem.
Mtb hypoxia rep – Mtb hypoxia fluorescent reporter inhibition; M. tuberculosis hypoxia-regulated fluorescent reporter, fluorescence; fluorescence inhibition, % (concentration not given with the values); 300,000 compounds, 0.1% hits;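 active = 35 to 45% if threefold the growth effect, above 45% if 1.5-fold the growth effect; inactive = the rest, general growth blockers included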;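 note: wells of about 50 µL received 100 nL stock; 0% = vehicle wells and 100% = reference inhibitor wells; whole bacteria with a GFP reporter of the hypoxia response; strong numbers were not always called active; many hits fall short of the cut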
ugtP null kill – growth inhibition of S. aureus ugtP deletion strain; S. aureus RN4220 ugtP deletion, OD600 growth, 16 h; some inactives read as strong as hits; growth inhibition, % (no concentration beside the values); 330,000 compounds, 0.54% hits; AID 1259309;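 active = z-score under -3 and OD600 up to 0.15 on both plates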;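 note: plate controls were untreated wells for no effect and antibiotic for full effect; wells of about 80 µL received 100 nL stock; the first replicate is given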
RN4220 kill – kills Staphylococcus aureus RN4220. S. aureus RN4220 growth, OD600, 16 h. 330,000 compounds, 0.33% hits. inhibition, % (no concentration beside the values);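 active = z-score of -3 or lower and OD600 up to 0.18 on both plates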;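 note: plate controls were untreated cells for no effect and reference antibiotic for full effect; stock transfer was 100 nL into about 80 µL; one replicate is shown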
Autofluor counter – compound fluorescence in toxin protease inhibitor counterscreen | compound autofluorescence counterscreen, microsphere flow cytometry; stronger effect = higher value | fluorescence intensity (no concentration beside the values) | 360,000 compounds, 3.1% hits | AID 624483;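 active = at least 3 SD above the mean of all compounds, about 16000 in these data; inconclusive = too few beads counted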;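 note: 100 nL of 1 mM stock went into each well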
PrP 5UTR inh – inhibition of PrP 5' UTR reporter expression. cell-based PrP 5' UTR mRNA reporter, plate reader. inhibition, % (no concentration beside the values). 340,000 compounds, 0.35% hits;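 active = every replicate at 50% or more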;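 note: 0 = median of the neutral control wells; tested in H4 reporter cells; numbers are from one replicate; inactives centre near -14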
BJeLR lethal – kills HRASV12-expressing BJeLR cells. inhibition, % (no concentration beside the values). BJeLR (HRASV12) viability, CellTiter-Glo ATP luminescence, 48 h; reference of the scale not given here. 300,000 compounds, 0.17% hits;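 active = replicate mean above 50%; inconclusive = above 50% but judged a plate artefact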;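 note: 50 nL library stock added to about 25 µL; numbers are from one replicate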
Mtb hypoxia rep growth – further read-out of Mtb hypoxia rep, marked with its call; growth inhibition, %; measured here: M. tuberculosis growth (absorbance);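 0% = vehicle and 100% = reference antibiotic; read after six days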
An asterisk follows results filed as active; ? = inconclusive; . = not tested or not shown; & = joins results of further samples.

Values run as follows: Mtb hypoxia rep	Mtb hypoxia rep growth	ugtP null kill	RN4220 kill	Autofluor counter	PrP 5UTR inh	BJeLR lethal
COCc1cc(C)nc(SCC(=O)Nc2ccc(N3CCOCC3)cc2)c1C#N
  1.1	7.8	3.4	-1.5	5080	-9.4	8.2
CSc1ncccc1C(=O)N1CCN(S(=O)(=O)c2ccccc2)CC1
  12.6	-0.4	7.0	2.7	6067	-20.2	8.2
CCN(CC(=O)Nc1ccc(NC(C)=O)cc1)C(=O)CSC(c1ccccc1)c1ccccc1
  -12.0	-11.1	-7.0	2.4	?	-2.7	.
Cc1ccc(S(=O)(=O)N2CCCCC2)cc1NC(=O)c1cccnc1
  -1.1	0.0	-0.2	-1.3	?	-12.3	.
Cc1cc(C(=O)NNC(=O)c2ccc(NC(=O)CC#N)cc2)c(C)o1
  11.4	0.6	1.1	6.6	3893	-29.3	.
CCc1ccc2oc(C(=O)NCc3ccc(S(N)(=O)=O)cc3)c(C)c2c1
  -2.4	-8.2	6.9	1.0	4856	-21.7	2.9
CCC(C)NC(=O)c1ccccc1NC(=O)c1ccccc1N(C)S(C)(=O)=O (configuration not stated)
  .	.	10.4	3.9	3616	1.0	2.3
CCOC(=O)C1=C(C)NC(C)=C(C(=O)OCC)C1C(=O)OCC(=O)NCc1ccccc1OC
  12.5	7.5	6.5	1.7	4086	-21.1	.
CC(C)C(NC(=O)CN1C(=O)c2ccccc2S1(=O)=O)C(C)C
  .	.	6.6	-1.3	5029	-9.7	-2.0
NC(=S)Cc1ccc(Cl)cc1Cl
  -5.9	7.3	4.7	3.1	4099	-2.0	4.1
O=C(CCCSc1ccc(Cl)cc1)Nc1ccccc1O
  .	.	4.4	0.6	4191	-29.9	-3.6
C=CCN(C(=O)c1csnn1)C(C(=O)NC1CCCC1)c1ccc(F)cc1 (configuration not stated)
  2.2	-1.8	7.2	0.7	4067	-12.9	-7.4
Oc1ccccc1/C=N/Nc1ccccc1
  .	.	.	.	2457	-46.7	-2.1
c1ccc(-c2nc(NC3CC3)nc(-n3ccnc3)n2)cc1
  10.8	-0.9	-17.1	2.4	21514*	-12.2	-4.5
COc1cc2cnc(CCOC3CCCCO3)cc2cc1OC (configuration not stated)
  9.7	12.3	-1.9	3.3	.	.	.
CC1Cc2ccccc2N1C(=O)CN1CCC(n2nnc3cc(C(F)(F)F)ccc32)CC1 (configuration not stated)
  .	.	-6.2	-1.8	4337	-25.0	3.9
CCOC(=O)c1c(NC(=O)CCNCc2ccco2)sc2c1CCC2
  22.8	8.3	17.6	9.7	.	.	24.6
CCCCn1c(=NC(=O)c2cccnc2)c(C#N)cc2c(=O)n3cccc(C)c3nc21
  -6.5	6.5	-11.0	4.2	6096	-11.6	-6.7
CC(C)(C)NC(=O)COC(=O)c1ccc(Cl)c(S(N)(=O)=O)c1
  8.3	-0.8	3.6	8.0	3438	-12.8	.
Cc1csc(NC(=O)CSc2nncn2C)n1
  .	.	-1.4	1.3	4565	-5.7	3.2
NS(=O)(=O)c1cccc(NC(=O)COC(=O)CCN2C(=O)c3ccccc3C2=O)c1
  1.9	-4.6	5.0	2.4	8394	-41.1	.
CNC(=O)c1c(NC(=O)c2ccc(S(=O)(=O)N3CCCc4ccccc43)cc2)sc2c1CCN(C)C2
  9.1	9.4	1.3	6.0	7323	-13.9	-3.7
S=C(c1ccc[nH]1)N1CCOCC1
  -1.6	6.7	-9.8	5.2	5409	-24.0	-11.4
COc1ccc(-c2ccnc3c(Br)c(C)nn23)cc1
  -0.8	8.6	-3.6	7.9	3594	-8.1	.
CC(C)CCNC(=O)c1sc2ccc(S(=O)(=O)N3CCCCC3)cc2c1N
  17.5	0.5	5.1	-3.6	2213	-19.0	-1.9
Cc1ccc(N(CC(=O)Nc2ccccc2-c2ccccc2)S(=O)(=O)c2ccccc2)cc1
  .	.	3.0	-1.9	4542	-16.9	2.9
O=C1C(c2cc(=O)c3ccccc3[nH]2)=C(O)c2ccccc21
  19.1	10.0	35.3	38.7	2063	-133.8	6.0
NC(=O)[C@H]1CC2(CC(c3cccc(NC(=O)CC(c4ccccc4)c4ccccc4)c3)=NO2)CN1C(=O)C(c1ccccc1)c1ccccc1 (some centres not stated)
  4.8	5.2	-21.0	-19.4	3860	-7.5	1.7
Cc1ccc2c(CN3CCN(CCO)CC3)cc(=O)oc2c1
  10.2	14.6	0.6	4.2	?	-15.6	-6.9
N#C/C=C/N1CCN(C(=O)c2ccco2)CC1
  3.9	-4.0	0.4	2.1	5754	0.2	.
COC(=O)COc1ccc(S(=O)(=O)Nc2ccc3c(c2)OCCO3)cc1C
  -2.1	-2.5	8.7	-0.6	3591	-16.4	-2.3
C=CCN1C(=O)SC(Cc2cccc(OC)c2O)C1=O (configuration not stated)
  12.6	2.6	11.3	5.5	4670	-15.4	-3.0
Cn1c(SCC(=O)Nc2ccc3c(c2)OCCO3)nnc1C1CC1
  -2.9	-1.3	9.8	1.9	5791	0.3	-10.5
CC[C@@]12C(=O)N(c3cccc(Cl)c3)C(=O)N1C(c1ccc(Br)cc1)C1C(=O)N(C(C)(C)C)C(=O)C12 (some centres not stated)
  5.9	8.5	-29.3	3.5	.	.	.
Cc1ccc(S(=O)(=O)N2CCN(C(=O)COC(=O)C3CCC3)CC2)c(C)c1
  4.6	7.4	2.4	2.8	5107	-10.6	1.2
O=C(CN1C(=O)c2cccc3cccc1c23)Nc1ccc(S(=O)(=O)Nc2nccs2)cc1
  6.4	11.6	-2.7	1.8	10040	9.9	-4.6
COc1ccc(C(C)=O)cc1CSCCC#N
  .	.	-1.1	-1.2	2315	-19.2	-5.9
O=C(Nc1ccccc1)c1ccc(COc2ccccc2)cc1
  -15.3	-12.0	-0.5	5.7	2255	-72.1	-5.9
CN(c1ccc(C(=O)N2CCOCC2)cc1)S(=O)(=O)c1cccs1
  3.7	-8.3	14.7	4.1	3053	-18.1	-5.0
COCCn1cc(-c2csc(N)n2)c2ccccc21
  -10.3	-6.0	-19.6	1.9	3360	-2.9	-9.1
C=C1c2c(Cl)ccc(O)c2C(O)=C2C(=O)[C@]3(O)C(O)=C(C(N)=O)C(=O)C(N(C)C)C3C(O)C12 (some centres not stated)
  .	.	99.7*	100.0*	.	.	.
COc1ccc(OCC(=O)Nc2ccc(S(=O)(=O)Nc3nc(C)cc(C)n3)cc2)cc1
  8.1	8.2	-0.9	2.9	4627	-13.1	-3.5
O=C(OCc1csc(Nc2ccccc2)n1)c1ccc(Cl)cc1
  9.4	4.6	-21.6	-0.4	2967	-9.0	-9.3
CC(Sc1nc2ccccc2s1)C(=O)c1c(N)n(C)c(=O)n(C)c1=O (configuration not stated)
  0.1	12.5	-3.7	3.3	5688	-27.8	-0.9
CCNc1nc(Cl)nc(NNC(=O)C(C)Oc2ccccc2)n1 (configuration not stated)
  18.5	10.9	7.8	6.7	2027	-11.0	13.6
NC(=O)C(=O)NN=Cc1cccc(C(F)(F)F)c1
  14.2	2.9	6.7	5.7	.	.	.
Cc1ccc(C(=O)Nc2cc(Cl)ccc2N2CCCCC2)s1
  .	.	-6.2	-3.8	2332	-23.0	2.9
COc1cc(OC)c(C(=O)N(CCc2ccccc2)Cc2ccccc2)cc1OC
  6.5	-1.6	0.5	6.1	5847	-4.2	-5.6
CC1(C)c2[nH]c3ccccc3c2CC2C(=O)N(Cc3ccccc3)C(=O)N21 (configuration not stated)
  13.6&16.3	11.9&9.9	-2.4&-23.5	-5.3&-1.3	.	.	.
CCOc1ccc(OCCC(=O)OCC(=O)N2CCN(S(=O)(=O)c3ccc(Cl)cc3)CC2)cc1
  6.4	2.0	4.9	0.0	6490	-9.6	3.6
CCOC(=O)N1CCN(C(=O)C2CCC(=O)N(CCCN3CCCC3=O)C2)CC1 (configuration not stated)
  5.6	2.9	6.4	1.9	6439	-15.4	-3.2
COc1ccc(CCNC2=C(Cl)C(=O)N(CCc3ccccc3)C2=O)cc1OC
  .	.	6.4	-0.8	3887	-9.0	7.1
CCOc1ccc(NC(=O)/C(C#N)=C\c2ccc(N3CCCC3)c(C)c2)cc1
  9.9	-10.0	-2.9	4.9	4541	-20.7	.
CN(CCCC(=O)Nc1ccccc1F)S(=O)(=O)c1ccc(F)cc1
  15.7	4.1	-4.6	1.0	5206	-21.1	-9.0
O=C(O)CC1COc2ccccc2N1C(=O)c1ccccc1Cl (configuration not stated)
  4.8	-0.6	-3.2	5.1	3661	-14.3	-5.3
Cc1[nH]n2c(=O)c3c(nc2c1-c1ccccc1)CCCC3
  .	.	1.0	3.4	4447	-11.8	1.9
COc1ccc(-c2nnc(-c3ccc(Br)o3)o2)cc1OC
  4.3	0.1	4.9	6.4	8785	-24.9	-12.9
CCN(CC)C(=O)c1ccc(NC(=O)CCCSc2ccccc2)cc1
  12.4	5.2	2.9	9.9	4874	-26.8	.
CCOc1ccccc1OCCn1nc2ccccc2n1
  -1.6	4.5	15.3	6.6	3670	-18.4	11.7
Cc1cc2c3c(c1)C1(C(=O)N3C(C)(C)CC2C)C(C#N)=C(N)OC2=C1C(=O)CC(C)(C)C2 (configuration not stated)
  .	.	-8.9	23.0	2792	-14.9	-11.5

Next part.
Values run as follows: Mtb hypoxia rep	Mtb hypoxia rep growth	ugtP null kill	RN4220 kill	Autofluor counter	PrP 5UTR inh	BJeLR lethal
COc1cc(C)ccc1N(CCCN1C(=O)c2cccc3cccc(c23)C1=O)C(=O)c1cccs1
  5.0	11.8	4.4	1.9	2136	0.3	-2.3
Cc1nc2ccc(Cl)cc2nc(C)c1=NO
  -0.2	-1.4	-6.8	3.4	.	.	.
CCOCc1nnc(NC(=O)C2CC(=O)N(C3CCCC3)C2)s1 (configuration not stated)
  -1.4	11.1	7.9	-1.2	5771	-3.2	-9.8
O=S(=O)(O)c1nc2ccccc2[nH]1
  5.6	-3.5	-0.9	3.5	4728	-15.6	2.9
CCc1ccc(C2(C)SC(NC(C)=O)=NN2C(C)=O)cc1 (configuration not stated)
  0.5	3.9	1.7	4.4	10394	-20.4	0.6
CCC(Oc1ccccc1)C(=O)NC1C(=O)N2C1SC(C)(C)C2C(=O)O (configuration not stated)
  .	.	.	.	2405	1.5	-12.0
O=C(O)C1CCCCC1C(=O)NCc1ccccn1 (configuration not stated)
  -0.6	0.7	0.7	0.9	4268	-12.6	-4.5
Clc1ccc(-c2nnc(SCc3nc4ccccc4[nH]3)o2)c(Cl)c1
  2.0	3.6	0.5	7.4	2272	-5.8	-1.7
CCCCNC(=O)N(c1c(N)n(Cc2ccccc2)c(=O)[nH]c1=O)C1CCCC1
  1.5	0.9	3.2	0.5	2544	-6.9	-5.4
CCOC(=O)C1CCN(C=Nc2cc(C)on2)CC1
  0.8	-0.9	2.9	14.0	3206	-9.7	2.8
O=C(CSc1nnc(-c2cccs2)n1-c1ccccc1)Nc1ccccc1
  7.6	8.0	-0.4	17.7	3251	-24.1	-5.1
S=C(Nc1cccnc1)N1CCc2ccccc21
  5.0	1.3	-11.2	-0.4	3103	-5.4	-9.8
Cc1cccc(C(=O)N2CCCN(C(=O)c3cccc(C)c3)CC2)c1
  .	.	5.4	-3.2	2747	-12.1	-4.3
O=C(Oc1c(-c2ccccc2)c(=O)n2c3c(cccc13)CC2)c1ccccc1
  11.8	11.6	-2.5	11.4	4779	.	3.2
CN1CCN(c2ccc(NC(=O)c3cccs3)cc2)CC1
  11.2	4.6	-0.8	5.5	3689	-58.9	2.9
Cc1cccc(OCc2nnc(SCC(=O)N3CCCC3)n2C)c1
  5.4	7.6	6.9	3.4	16407*	-11.7	-4.2
Cc1ccc(SCCC(=O)NC(C)C)cc1
  -4.7	8.6	-3.9	5.6	6168	-27.4	-2.9

By substructure, the compounds so far with a COOH group (3)
Values run as follows: Mtb hypoxia rep	Mtb hypoxia rep growth	ugtP null kill	RN4220 kill	Autofluor counter	PrP 5UTR inh	BJeLR lethal
O=C(O)CC1COc2ccccc2N1C(=O)c1ccccc1Cl (configuration not stated)
  4.8	-0.6	-3.2	5.1	3661	-14.3	-5.3
CCC(Oc1ccccc1)C(=O)NC1C(=O)N2C1SC(C)(C)C2C(=O)O (configuration not stated)
  .	.	.	.	2405	1.5	-12.0
O=C(O)C1CCCCC1C(=O)NCc1ccccn1 (configuration not stated)
  -0.6	0.7	0.7	0.9	4268	-12.6	-4.5
